D2 ag: human D2 receptor agonism in beta-arrestin assay | DiscoveRx PathHunter D2 beta-arrestin, luminescence, 90 min; 100% = 57 uM dopamine signal | activation, % (no concentration beside the values) | 360,000 compounds, 0.084% hits | P14416; in the data active = activation above about 40%; inconclusive = about 15% to 40%; inactive = below about 15%; note: compound concentration not given in the record; the text of the record calls up to 30% inactive
Target sequence (P14416 whole entry, looked up): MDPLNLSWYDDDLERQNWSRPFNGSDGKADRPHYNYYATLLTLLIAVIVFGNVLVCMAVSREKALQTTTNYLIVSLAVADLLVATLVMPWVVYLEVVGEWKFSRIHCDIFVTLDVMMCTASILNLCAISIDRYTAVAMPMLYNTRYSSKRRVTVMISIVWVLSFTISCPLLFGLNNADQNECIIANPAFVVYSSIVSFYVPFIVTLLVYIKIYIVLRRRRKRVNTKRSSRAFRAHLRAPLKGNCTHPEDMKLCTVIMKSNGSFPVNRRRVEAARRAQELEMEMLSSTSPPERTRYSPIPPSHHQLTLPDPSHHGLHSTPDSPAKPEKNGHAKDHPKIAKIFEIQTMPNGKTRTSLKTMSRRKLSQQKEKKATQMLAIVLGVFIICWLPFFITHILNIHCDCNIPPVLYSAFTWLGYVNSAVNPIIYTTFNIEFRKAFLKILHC
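DiscoveRx PathHunter D2 beta-arrestin cells (2,100/well) attached overnight, then compound-stimulated 90 min at 37 C in HBSS/10 mM HEPES/0.1% Tween-20 buffer; beta-galactosidase complementation read by luminescence after 1 h at ambient temperature. Dopamine 57 uM final (EC100) as control.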
PINK1 expr mod: PINK1 expression modulation; Potency, µM (doses to about 76.6 µM), inactives show at the highest dose activation (PINK1 increase), usual class: activators; PINK1 immunofluorescence, high-content cytometry, 24 h; 410,000 compounds, 0.2% hits; AID 624263; active = well fitted activation curve with a large enough effect; inconclusive = small, poorly fitted or top-dose-only effect; inactive = flat fitted curve, though single readings scatter; cell line not stated here;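 note: potency is the fitted concentration of half-maximal effect; % of control where 0% means no effect; nearly all actives have a fitted effect of over 65% in size; a mitochondrial uncoupler was the plate control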
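A stable cell line was treated with compounds at 5 concentrations for 24 hours, with CCCP as control. PINK1 levels and mitochondrial localization were measured by immunofluorescence with mitochondrial, cell and nuclear markers after fixation, read by laser-scanning cytometry.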
gsp agonist: gsp mutant agonism | gsp mutant cells, cAMP HTRF, 30 min; control for the full effect not named in the record | Potency, µM (series often up to 76.9 µM), for inactives: at the highest dose activation (cAMP increase), actives largely listed as activators | 340,000 compounds, 0.13% hits; active = well fitted activation curve with a large enough effect; inconclusive = small, poorly fitted or top-dose-only effect, or another doubt; inactive = no such curve, though single readings can be large or run the other way; cell line not stated here;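 note: phosphodiesterase inhibitor Ro 20-1724 added with compounds to block cAMP breakdown; potency is the fitted concentration of half-maximal effect; nearly all actives have a fitted effect of over 60% in size; about a fifth of the inactives were tested at one dose only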
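Cells stably selected in G418 were plated at 2000/well, grown 16-24 hr, then given compounds in DMSO with the PDE inhibitor […] (300 uM solution added) for 30 min at 37C; cAMP was read by HTRF.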
Sfp inh: Sfp phosphopantetheinyl transferase inhibition. AID 1490. Biochemical Sfp PPTase activity, qHTS. Potency, µM, without a hit: max response, negative = inhibition, usual class: inhibitors. 310,000 compounds, 3.5% hits. Q9F4F7; active = well fitted inhibition curve with a large enough effect; inconclusive = small, poorly fitted or top-dose-only effect, or another doubt; inactive = no such curve, though single readings can be large or run the other way;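 note: the enzyme is Sfp with the accession as filed and its product quenches rhodamine fluorescence; potency is the fitted concentration of half-maximal effect; 0% = enzyme reaction without inhibitor and -100% = no enzyme wells; top concentration of the series not given in the record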
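Step 1, compound plus 15 nM Sfp-PPTase, 15 min, room temperature. Step 2, add rhodamine-CoA (5 uM) and BHQ-2-YbbR (12.5 uM). Step 3, read 525/598 nm fluorescence at 0 and 30 min.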
Menin-MLL FL inh: menin-MLL binding inhibition, fluorescein peptide. FP activity change, % at 61.4 µM. Fluorescence polarization, fluorescein-MLL peptide displacement from menin. 290,000 tested, under 10 active; inconclusive = falling polarisation curve, or a change in total fluorescence; inactive = total fluorescence flat and polarisation flat or rising; no compound was filed as active; the % refers to the polarisation; negative = inhibition;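 note: % of control where 0% means no effect; inhibitors lower the polarisation; unlabelled MLL peptide was the positive control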
ClpP mod: qHTS Assay for Activators of ClpP | purified B. subtilis ClpP, FRET peptide cleavage, 20 min | Potency, µM (highest dose often 57.5 µM), inactives show at the top dose activity change, negative = active | 340,000 compounds, 1.9% hits; active = well fitted falling curve with a large enough effect; inconclusive = small, poorly fitted or top-dose-only effect; inactive = no such curve, though single readings can be large or run the other way; note: potency is the fitted concentration of half-maximal effect; the source files actives as falling curves though it sought activators and does not explain the sign; nearly all actives have a fitted effect of over 65% in size; many hits overshoot -100%
Target sequence (P80244 whole entry, looked up): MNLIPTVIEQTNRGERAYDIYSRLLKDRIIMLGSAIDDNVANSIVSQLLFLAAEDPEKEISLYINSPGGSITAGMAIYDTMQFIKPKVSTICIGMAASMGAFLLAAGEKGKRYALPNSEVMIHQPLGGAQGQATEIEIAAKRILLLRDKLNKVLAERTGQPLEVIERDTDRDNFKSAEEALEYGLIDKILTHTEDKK
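ClpP 10 microg/mL final, pH 8 Tris/KCl buffer with BSA, glycerol, Tween-20; compound pinned in; FRET-FV substrate; RT 20 min; Ex320/Em430; ΔFRET vs ADEP 5.8 microM, DMSO, no enzyme.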
gsp antagonist: antagonizes gsp, the McCune-Albright syndrome mutation | gsp-mutant cells, cAMP HTRF, 30 min; control for the full effect not named in the record | Potency, µM (highest dose often 76.9 µM), for the others: at the top dose activity change, negative = inhibition, most hits filed as inhibitors | 340,000 compounds, 0.4% hits; active = falling curve of any shape with a large fitted effect; inconclusive = falling curve, mostly with a smaller effect; inactive = flat or rising curve; cell line not stated here;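 note: intracellular cAMP measured with PDE inhibitor Ro 20-1724 present during compound exposure; potency is the fitted concentration of half-maximal effect; % is set by controls: 0 for no effect and ±100 for the full control effect; nearly all actives have a fitted effect of over 65% in size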
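HTRF cAMP read-out (cAMP-d2 plus anti-cAMP antibody-K in lysis buffer, 30 min RT). Before lysis, cells are exposed to compounds with […] for 30 min at 37C in DPBS containing Ca/Mg, BSA and Tween 20.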
Active calls of the source: *; ? = inconclusive; . = no result given; [ ] = another dose, or the depositor's remark. An unsorted share of the library, and some 5.1% of all compounds hit somewhere here.

Every second line gives: D2 ag, PINK1 expr mod, gsp agonist, Sfp inh, Menin-MLL FL inh, ClpP mod, gsp antagonist
- Cc1ccc(S(=O)(=O)N2C[C@H]3C(=O)C[C@@H](c4ccc(Cl)cc4)N(S(=O)(=O)c4ccccc4C)[C@H]3C[C@H]2c2cccc(Cl)c2)cc1
  -9.0, -0.6%, ?, ., ., -0.7%, .
- CCCn1c(=O)c(C(=O)Nc2cc(C)ccn2)c(O)c2ccccc21
  0.0, -0.7%, 6%[15.4 µM], 28%, 1.1, -18%, 6%
- CCc1cc(C(=O)Nc2ccc(C)cc2Br)cs1
  -1.5, -0.6%, -4%, 5%, 7.4, -7.4%, -25%
- Cc1[nH]c2ccccc2c1C(=O)CSc1ncn[nH]1
  -0.3, -1.6%, -24%, 9%, -0.3, -0.4%, 10%
- CN(Cc1ccon1)C(=O)CCc1nnc(Cc2ccc(-c3ccccc3)cc2)o1
  6.2, 0.4%, 2%, -12%, 2.7, ., -9%
- COc1ccc(CC(=O)N/N=C/c2ccc(Cl)s2)cc1OC
  2.6, 2.7%, 13%, 3%, 4.6, -3.1%, 5%
- COc1ccc(OC)c(NC(=O)C2(C)CCN2C(=O)C(C)(C)c2ccccc2)c1 (stereo not drawn)
  8.9, 2.3%, ., ., ., -0.7%, .
- C=C1C[C@H](O[C@@H]2O[C@H](CO)[C@@H](O)[C@H](O)[C@H]2O)[C@@H]2[C@H](OC(=O)[C@H]2C)[C@H]2[C@H](C)[C@@H](O)C[C@@H]12
  0.2, -0.3%, ., ., ., 0.2%, 12%
- O=C(CSc1nnc2nnc3ccccc3n12)N1CCOCC1
  1.5, -0.7%, ?, 27%, ., 0.8%, -6%
- Cc1ccc(S(=O)(=O)Nc2cccc(N(C)S(C)(=O)=O)c2)cc1[N+](=O)[O-]
  -6.4, 3.5%, -5%, -11%, 0.7, 1.3%, 6%
- S=c1nc(-c2ccccc2)[nH]c2ccccc12
  -2.2, 4.8%, 16µM*, 13%, 0.4, 0.6%, 9%
- O=C(CNC(=O)c1ccc(Cl)cc1Cl)OCc1nnc(-c2ccccc2Br)o1
  -0.6, -2.3%, 4%, ., ., -1.0%, -10%
- N#CCCN1CCN(S(=O)(=O)c2ccc(S(=O)(=O)NCC3CCCO3)cc2)CC1 (stereo not drawn)
  -4.0, -2.5%, -53%[inhibitor], 7%, 2.5, 0.8%, 4%
- Cc1ccc(NC(=O)C(NC2CCCc3ccccc32)c2ccccc2)cc1Cl (stereo not drawn)
  -5.9, 1.2%, -10%[15.4 µM], 45µM*, 2.2, ., -17%
- Cc1ccc(C(=O)Nc2nnc(C)s2)cc1
  -3.8, 0.1%, 7%[15.4 µM], 0%, -4.5, ., 3%
- CC1CCCC(NC(=O)c2cccc(N3CCCC3=O)c2)C1C (stereo not drawn)
  3.8, 0.2%, -29%, 15%, -1.7, -2.1%, 4%
- CCOP(=O)(OCC)C(NC(=O)Nc1ccc(Cl)cc1)c1ccccc1 (stereo not drawn)
  -4.3, 6.8%, -23%, 1%, -0.6, -1.4%, 4%
- COc1ccc(NS(=O)(=O)c2cc3c4c(c2)CCN4C(=O)CC3)cc1OC
  0.3, -0.6%, -5%, ., ., -1.7%, -4%
- O=[N+]([O-])c1ccc(N2CCCCC2)c(-c2nn[nH]n2)c1
  -2.5, 1.2%, 7%[15.4 µM], -4%, 2.4, -1.3%, 11%
- CCOc1ccc(NC(=O)CCc2nnc3ccc(N4CCC(C)CC4)nn23)cc1
  1.0, -1.1%, ?, 0%, 0.0, 0.0%, -4%
- CCC(=O)OCCn1c(=O)c2ccccc2c2ccccc2c1=O
  -2.2, 2.6%, -36%[inhibitor], 9%, -4.1, ?, 17%
- C/C(=N\NC(=S)Nc1cc(S(=O)(=O)N2CCOCC2)ccc1Cl)c1ccccc1F
  -2.5, -2.1%, 12%, -23%, 4.5, -6.6%, -3%
- COc1cccc(N2C(=O)CC(N3CCN(c4ccc([N+](=O)[O-])cc4)CC3)C2=O)c1 (stereo not drawn)
  -2.3, 7.5%, -9%, 20%, 0.2, 1.6%, -9%
- COc1ccc(/C=N/Nc2ccc(C(=O)O)cc2)cc1Br
  1.1, 2.1%, ?, -1%, -1.1, ., -10%
- O=C(NCCN1CCN(C(=O)c2ccc(F)cc2)CC1)c1ccc(F)cc1
  -0.5, 0.3%, -4%, -4%, -1.5, -0.5%, 2%
- CN(C)S(=O)(=O)N1CCC(Cc2ccccc2)CC1
  -0.9, -5.0%, -20%, -14%, -1.0, 2.5%, 2%
- Cc1c(C(=O)NCc2ccc3c(c2)OCO3)oc2ccc(S(=O)(=O)N3CCCCC3)cc12
  1.1, ?, -57%[inhibitor], 16%, 1.9, -21%, -22%
- CN(C)/C=N/c1nc2ccc3c(c2s1)CCCC3
  0.7, ., 9%, 7%, -3.1, -16%, -5%
- O=C(Nc1ccccc1F)C(c1ccccc1)c1ccccc1
  -0.4, 1.4%, -2%[15.4 µM], ., ., -0.9%, -39%
- COc1ccc(C(=O)N/N=C/c2ccc(OC)c(COc3c(F)c(F)cc(F)c3F)c2)cc1
  4.1, 5.3%, 4%, -5%, ., 172%, -13%

Structures shown so far with a nitro group on carbon, in the order listed:
Every second line gives: D2 ag, PINK1 expr mod, gsp agonist, Sfp inh, Menin-MLL FL inh, ClpP mod, gsp antagonist
- Cc1ccc(S(=O)(=O)Nc2cccc(N(C)S(C)(=O)=O)c2)cc1[N+](=O)[O-]
  -6.4, 3.5%, -5%, -11%, 0.7, 1.3%, 6%
- O=[N+]([O-])c1ccc(N2CCCCC2)c(-c2nn[nH]n2)c1
  -2.5, 1.2%, 7%[15.4 µM], -4%, 2.4, -1.3%, 11%
- COc1cccc(N2C(=O)CC(N3CCN(c4ccc([N+](=O)[O-])cc4)CC3)C2=O)c1 (stereo not drawn)
  -2.3, 7.5%, -9%, 20%, 0.2, 1.6%, -9%

Other records.
Every second line gives: D2 ag, PINK1 expr mod, gsp agonist, Sfp inh, Menin-MLL FL inh, ClpP mod, gsp antagonist
- COC(=O)c1sccc1NC(=O)COc1ccc(Cl)cc1
  -2.1, 1.4%, 6%[15.4 µM], -13%, 4.0, -0.6%, -9%
- COc1cc(C(N)=O)cc(Cl)c1OC
  0.1, -1.8%, -9%, 6%, 1.2, -5.5%, 8%
- O=c1onc(-c2cccnc2)n1-c1ccccc1F
  6.8, 0.3%, 3%, 10%, -1.4, 1.8%, 0%
- Cc1ccc2c(COC(=O)C34CC5CC(CC(C5)C3)C4)cc(=O)oc2c1
  -1.6, 7.4%, -7%, 16%, 11, 0.2%, 8%
- NC(=O)c1ccsc1NC(=O)C1CCN(S(=O)(=O)c2cccs2)CC1
  1.0, 2.2%, -39%[inhibitor], ., ., -9.9%, -3%
- C=C1CCC[C@]2(C)C[C@H]3OC(=O)C(CN4CC(C)OC(C)C4)[C@H]3C[C@@H]12 (stereo partly drawn)
  6.2, -1.3%, -14%, 9%, -5.9, -0.6%, -11%
- CN(C)S(=O)(=O)c1ccc(N2CCOCC2)nc1
  -2.2, 2.4%[38.3 µM], 2%, 1%, -3.9, -6.3%, 6%
- COc1cc(CNC(=O)CCC(=O)N2C[C@H]3C[C@H](C2)c2cccc(=O)n2C3)cc(OC)c1OC
  -7.6, -0.5%, ., 0%, -2.5, -0.8%, 12%
- O=C(c1ccc2c(c1)OCO2)N1CCc2ccccc21
  -3.5, 3.0%, -11%, 8%, -0.9, ., -11%
- Cc1ccccc1-n1nc(C(=O)c2cccs2)cc(-c2nc3ccccc3[nH]2)c1=N
  -2.7, 7.4%, -29%, 5%, -0.9, 1.3%, -2%
- O=C(CNC(=O)C12CC3CC(CC(C3)C1)C2)OCC(=O)N1CCCCC1
  -8.1, -1.9%, 14%[15.4 µM], ., ., ., -11%
- COc1ccc(/C=C/c2ccc3cccc(O)c3n2)c(OC)c1OC
  -16, 6.1%, 23%, ?, 1.1, -11%, -4%
- CC(=O)c1c(C)[nH]c(C(=O)N2CCN(c3ccc(F)cc3)CC2)c1C
  -0.8, 3.5%[38.3 µM], 14%, -8%, 1.1, 0.2%, -8%
- CCCCNC(=S)N(C)/N=C/c1ccc(OCC(=O)Nc2ccc(OC)cc2)c(OC)c1
  ?, 0.4%, -1%, 1%, 3.1, -6.9%, -11%
- Cc1sc(NC(=O)Cn2cnnn2)nc1-c1ccc(Cl)cc1
  -4.9, 1.4%, -6%, 6%, -1.6, 1.2%, -8%
- Cc1onc(-c2ccccc2)c1NC(=O)N(CCC#N)Cc1cccs1
  -4.6, 1.9%, 0%, 16%, 4.1, -1.7%, -3%

3 neighbouring records out of the list so far:
Every second line gives: D2 ag, PINK1 expr mod, gsp agonist, Sfp inh, Menin-MLL FL inh, ClpP mod, gsp antagonist
- COC(=O)c1sccc1NC(=O)COc1ccc(Cl)cc1
  -2.1, 1.4%, 6%[15.4 µM], -13%, 4.0, -0.6%, -9%
- COc1cc(C(N)=O)cc(Cl)c1OC
  0.1, -1.8%, -9%, 6%, 1.2, -5.5%, 8%
- O=c1onc(-c2cccnc2)n1-c1ccccc1F
  6.8, 0.3%, 3%, 10%, -1.4, 1.8%, 0%
